# HPGD block: HPGD (human) dehydrogenase inhibition | Potency, µM, without a hit: top-dose activity change, negative = inhibition, hits mostly inhibitors | purified HPGD, NADH fluorescence kinetic, PGE2 substrate | P15428 | 150,000 compounds, 4.3% hits | AID 894; active = well fitted inhibition curve with a large enough effect (not every such curve was filed as active); inconclusive = small, poorly fitted or top-dose-only effect, or another doubt; inactive = no such curve, though single readings can be large or run the other way;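 also: top concentration of the series not given in the record; plate controls included wells without enzyme; inactives centre near -10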
# Target sequence (P15428 whole entry, looked up): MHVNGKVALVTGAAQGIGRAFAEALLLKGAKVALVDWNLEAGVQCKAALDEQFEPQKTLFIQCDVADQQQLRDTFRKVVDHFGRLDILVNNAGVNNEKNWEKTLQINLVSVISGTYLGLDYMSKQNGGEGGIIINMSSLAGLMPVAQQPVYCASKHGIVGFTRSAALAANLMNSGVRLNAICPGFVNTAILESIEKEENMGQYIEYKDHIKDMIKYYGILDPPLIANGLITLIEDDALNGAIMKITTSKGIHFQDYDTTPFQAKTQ
#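 NADH formation kinetics: reaction with 30 uM PGE2 and 1 mM NAD+ (final), 20 nM enzyme, Tris-HCl pH 8 with Tween 20, after 15 min compound preincubation at room temperature. Fluorescence change, last versus first of five reads.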
# * hit, by the source's call; ? = inconclusive; & = joins results of further samples; ! = not active in a repeat. % is scaled to controls: 0 for no effect and ±100 for the full control effect; potency is read from the fitted curve at half-maximal effect. Some of the compounds tested; count on the stated rates, not on these rows.
SMILES,HPGD block
Cc1ccccc1OCCN=Cc1c(O)n(C)c(=O)n(C)c1=O,3.2%
Nc1ccccc1C(=O)OCC(=O)N1CCc2ccccc21,?
COc1ccc(C(O)c2cc(OC)ccc2OP(=O)(N(C)C)N(C)C)cc1 (stereo not given),-0.5%
OC1(c2ccc(F)cc2)CC2CCC(C1)N2Cc1nnnn1C1CCCC1 (stereo not given),-2.1%
CCCC(C)C1(CC)C(=O)NC(=Nc2ccccc2)NC1=O (stereo not given),-6.7%
CCCc1cc2c(n1Cc1ccco1)C(C)C1CN(C(=O)c3ccccc3)C(C)(C(=O)OC)C21 (stereo not given),?
O=C1CCCC2=C1C(c1cccnc1)Nc1ccccc1N2 (stereo not given),-9.7%
C=CC(=C)C,1.9%
Cc1nn(-c2ccccc2)c2c1CC1(C(=O)N(C)C(=O)N(C)C1=O)C1CCCCN21 (stereo not given),0.3%
CC1=CC(C)C(COC(N)=O)(COC(N)=O)C(C)C1 (stereo not given),-6.4%
CCCC12CN3CC(CCC)(CN(C1)C3c1ccccn1)C2=O (stereo not given),-0.2%
COc1cc2c3c(c1OC)-c1cc(O)ccc1CC3NCC2 (stereo not given),?
CCOC(=O)c1c(C)n(Cc2ccco2)c2ccc(OC)cc12,-7.3%
CN(C)CCc1nc2ccccc2c(=O)n1-c1ccccc1,3.4%
N[C@H](CCCCCP(=O)(O)O)C(=O)O,1.9%&1.6%&-15.7%
CN1CCN(c2nc3ccccc3c(=O)n2-c2ccccc2)CC1,-6.3%
COP(=O)(OC)C1(Nc2ccc(C)cc2)CCCCC1,-10.1%
Cc1cccc([C@H](C)c2cnc[nH]2)c1C,-10.2%
COc1ccc(C(C)=O)cc1CC(C(=O)c1ccccc1)N(C)C (stereo not given),-8.7%
CC(C)CC(N(C)C)C1(c2ccc(Cl)cc2)CCC1 (stereo not given),-3.0%&-3.5%

# 5 structures out of the list, arranged by length of the SMILES, rising:
SMILES,HPGD block
N[C@H](CCCCCP(=O)(O)O)C(=O)O,1.9%&1.6%&-15.7%
COP(=O)(OC)C1(Nc2ccc(C)cc2)CCCCC1,-10.1%
CC(C)CC(N(C)C)C1(c2ccc(Cl)cc2)CCC1 (stereo not given),-3.0%&-3.5%
CCOC(=O)c1c(C)n(Cc2ccco2)c2ccc(OC)cc12,-7.3%
COc1ccc(C(C)=O)cc1CC(C(=O)c1ccccc1)N(C)C (stereo not given),-8.7%

# Continuation:
SMILES,HPGD block
Cc1ccn2nc(S(=O)(=O)Nc3c(F)cccc3F)nc2n1,-19.7%
c1ccc2c(c1)CC1CNCc3cccc(c31)S2 (stereo not given),-1.7%
C[C@@]12CC[C@H]3[C@@H](CC[C@]4(O)C[C@H](O)CC[C@@]34C=O)[C@]1(O)CC[C@@H]2C1=CC(=O)OC1,-6.4%
CC(C)(O)[C@@H]1C2OC(=O)[C@@H]1[C@]1(O)C[C@H]3O[C@]34C(=O)O[C@H]2[C@]14C,-15.5%
N[C@@H](Cc1c[nH]c2ccccc12)c1nnc(SCc2ccccc2)o1,-5.3%
Cc1c(C(=O)c2cccc3ccccc23)c2cccc3c2n1[C@H](CN1CCOCC1)CO3,-22.5%&-2.9%
CCCC[N+]12C3CC(C(CC)[C@H]1O)[C@@H]1C(O)C4(C[C@@H]12)c1ccccc1N(C)C34 (stereo not given in full),-16.8%
O=P(Oc1ccccc1)(Oc1ccccc1)C(Nc1ccccc1)c1ccccc1 (stereo not given),-9.4%
CC(C)CC12CN3CCN(CC(C3)C1O)C2 (stereo not given),-6.6%
O=C(CNC(=O)c1ccc(Br)cc1)Nc1ccc(Br)cc1C(=O)c1ccccc1,-6.2%
Cc1ccc(S(=O)(=O)N(C)CCCC(=O)N2CCN(c3ccccn3)CC2)cc1,-13.8%
CN(C)Cc1ccccc1OC(=O)N(C)C,4.7%
COCCCn1c(N)c(C(=O)OC(C)COC)c2nc3ccccc3nc21 (stereo not given),?
CCCCn1c(=O)c(C(=O)Nc2cnccn2)c(O)c2ccccc21,-11.5%
C=CCCl,-4.9%
CC1CCC(NCCc2ccc3c(c2)OCO3)CC1 (stereo not given),-1.1%
CC(C)(C)C(O)(CCc1ccc(Cl)cc1)Cn1cncn1 (stereo not given),-6.5%
C=CC(=O)OCCN(C)C,-4.2%
O=C(O)C[C@H]1NCc2cc3ccccc3nc21,-2.6%
Cc1ccc2cc(C=C(C#N)C#N)c(Cl)nc2c1,-19.7%
Nc1cc(N2CCNCC2)c([N+](=O)[O-])cc1Cl,-9.6%
CC(=NCCN1CCOCC1)c1c(O)n(-c2ccccc2C)c(=O)[nH]c1=O,0.6%
C=CCOC(=O)C1=C(C)OC(N)=C(C#N)C12C(=O)N(CN1CCOCC1)c1ccccc12 (stereo not given),-2.2%
CCN(CC)Cc1c[nH]c2ccccc12,?
Cc1ccc(S(=O)(=O)NCCC(=O)Nc2ccc(Cl)cc2C(=O)c2ccccc2)cc1,-10.2%
COc1cc(OC)c(OC)cc1CNCCc1ccc(OC)c(OC)c1,-3.2%
COc1ccc(C2C(C(=O)N3CCC4(CC3)OCCO4)CC(=O)N2c2ccc(OC)cc2)cc1 (stereo not given),-3.6%
O=C1OC(c2cc(I)c(O)c(I)c2)(c2cc(I)c(O)c(I)c2)c2ccccc21,11.2µM*
O=C(Nc1ccccc1)N1CC[C@@]2(CCCNC2)C1,-1.7%
O=C(O)CP(=O)(O)c1ccc(Cl)cc1,-1.1%
CN[C@@H]1C[C@H](c2ccc(Cl)c(Cl)c2)c2ccccc21,-8.7%
COCCCN1CCN(c2nnc3n2-c2sc(Br)cc2C(c2ccccc2Cl)=NC3)CC1,-3.1%
COc1ccc(-c2nc3ccccc3c(=O)n2-c2cccnc2)cc1,-3.5%
C[C@]12CCC(=O)C=C1CC[C@@H]1[C@@H]2C(=O)C[C@]2(C)C(=O)CC[C@@H]12,-2.5%
CCCNS(=O)(=O)c1ccc(OCC(=O)N2CCN(Cc3ccccc3)CC2)cc1,-0.6%
Cc1nn(CCc2n[nH]c(=S)n2-c2cccc(Cl)c2)c(C)c1[N+](=O)[O-],?
CC(C)CN1CC2(CCN(C(=O)Oc3ccccc3)CC2)C1,-2.0%
CN1C2CCC1CC(OC(=O)c1ccc(Cl)cc1)C2 (stereo not given),-3.1%
Cc1c(OCC(F)(F)F)ccnc1CS(=O)c1nc2ccccc2[nH]1 (stereo not given),?
Cc1cc(C)n2c(Br)c(CN3CC4CC(C3)c3cccc(=O)n3C4)nc2n1 (stereo not given),-7.7%
CCC(=NCCC(c1ccccc1)c1ccccc1)c1c(O)n(C)c(=O)n(C)c1=O,-5.2%
O=C(c1ccco1)c1cn(Cc2ccccc2Cl)c2ccccc12,-9.3%
CC(=Nc1c(C)n(C)n(-c2ccccc2)c1=O)c1c(O)n(Cc2ccccc2)c(=O)[nH]c1=O,20µM*
COc1cc(-c2ccc(N)c(OC)c2)ccc1N,-18.1%
NC[C@H](CP(=O)(O)O)c1ccc(Cl)cc1,-4.5%
CC[C@H](Oc1ccc(Cl)cc1)C(=O)OC1C[C@H]2CC[C@@H](C1)N2C (stereo not given in full),-1.2%
CC(C)(C)NC(=O)Cn1cc(C(=O)c2ccccc2F)c2ccccc21,-2.7%
COc1ccc(CC2C(=O)NC(=O)NC2=O)c(OC)c1,4.4%
CC/C(=N\Nc1cccc2ccccc12)c1c(O)[nH]c(=O)[nH]c1=O,?
NC1(C(=O)O)CCCC1,-0.4%

# Structural class, the entries above with fluorine.
SMILES,HPGD block
OC1(c2ccc(F)cc2)CC2CCC(C1)N2Cc1nnnn1C1CCCC1 (stereo not given),-2.1%
Cc1ccn2nc(S(=O)(=O)Nc3c(F)cccc3F)nc2n1,-19.7%
Cc1c(OCC(F)(F)F)ccnc1CS(=O)c1nc2ccccc2[nH]1 (stereo not given),?
CC(C)(C)NC(=O)Cn1cc(C(=O)c2ccccc2F)c2ccccc21,-2.7%

# The list goes on:
SMILES,HPGD block
COc1c2c(cc3c1OCO3)C13C=CC(OC)CC1N(C2)CC3O (stereo not given),-10.5%
C/C=C/c1ccc2c(c1)OCO2,-6.7%&-8.2%&-8.1%
O=c1cccc2n1CC1CNCC2C1 (stereo not given),-7.3%&-8.7%
C[C@@H]1O[C@H](C[N+](C)(C)C)CS1,-13.8%
Oc1cc2c(cc1O)[C@H]1c3ccccc3CNC1CC2 (stereo not given in full),6.31µM*
Brc1c(NC2=NCCN2)ccc2nccnc12,22.4µM*!
O=C(/C=C/c1ccccc1)NC(NC(=S)Nc1cccc2cccnc12)C(Cl)(Cl)Cl (stereo not given),?
O=c1[nH]c(=S)n(Cc2ccc(F)cc2)c(O)c1/C=N/N1CCCCCC1,-11.8%
O=C(c1ccc2c(c1)ncn2C1CCCCCC1)N1CCC2(CC1)OCCO2,14.1µM*
Cn1c(O)c(C=NC2CC3CCC2(C)C3(C)C)c(=O)[nH]c1=O (stereo not given),-8.5%
CC(=O)OC1=CC2=CC[C@H]3[C@H]4CCC(=O)[C@@]4(C)CC(=O)[C@]3(S)[C@]2(C)CC1,-4.5%
O=C(Cc1ccccc1)N1CCN(Cc2ccc([N+](=O)[O-])cc2)CC1,-3.4%
CN1C2CCC1CC(OC(=O)c1ccc(Cl)cc1)(C(=O)O)C2 (stereo not given),-0.9%
O=C(c1ccco1)N1CCC[C@@]2(CCN(Cc3ccncc3)C2)C1,-6.6%
CCCCC/C=C\C/C=C\CCCCCCCCCC(=O)NCCO,-7.3%
C[C@@H]1O[C@@H](O[C@H]2CC[C@]3(C=O)C4CC[C@]5(C)[C@@H](C6=CC(=O)OC6)CC[C@]5(O)[C@@H]4CC[C@]3(O)C2)[C@H](O)[C@H](O)[C@H]1O (stereo not given in full),-1.5%
COCC#CCN1CCCCC1c1cccnc1 (stereo not given),-6.0%
CC(=O)OC[C@H](N)C(=O)c1ccccc1,-2.3%
O=C1/C(=C/c2ccc([N+](=O)[O-])cc2)N2CCC1CC2,-7.7%
CCOC(=O)C(O)(c1ccc(NC(=S)NC(=O)c2ccc(Cl)cc2Cl)cc1)C(F)(F)F (stereo not given),-21.5%
O=C(Oc1ccccc1)N1CCC[C@@]2(CCN(Cc3ccccc3)C2)C1,-7.3%
S=c1[nH]nc(-c2ccco2)n1Cc1ccccc1,?
Fc1ccc(C(OCCN2CCN(CCCc3ccccc3)CC2)c2ccc(F)cc2)cc1,-14.8%&-15.8%&-2.3%
CC(C)(Cl)Cl,-0.1%
CCN(CC)S(=O)(=O)c1ccc(N=Cc2c(O)n(-c3ccccc3)c(=O)[nH]c2=O)cc1,-26.1%
CC(=O)OC1C[C@@]2(C)C(c3ccoc3)C[C@H]3O[C@@]32[C@@]2(C)C(=O)C(O)=C3C(C)(C)C(=O)C=C[C@]3(C)C12 (stereo not given in full),-4.2%
COc1ccc(OC)c(NP(=O)(Oc2ccc(Cl)cc2)Oc2ccc(Cl)cc2)c1,-10.4%
C[C@@]12CC[C@H](O)C[C@@H]1CC[C@H]1[C@@H]2C[C@@H](O)[C@]2(C)[C@@H](C3=CC(=O)OC3)CC[C@]12O,-5.9%
CCCCCCCCc1[se]c2ccccc2c1Br,1.0%
C[C@H]1CC[C@@H]2[C@@H](C)[C@H]3[C@H](C[C@H]4[C@@H]5CC=C6C[C@@H](O[C@@H]7O[C@H](CO)[C@H](O)[C@H](O[C@@H]8O[C@H](CO)[C@@H](O)[C@H](O)[C@H]8O)[C@H]7O[C@@H]7O[C@@H](C)[C@H](O)[C@@H](O)[C@H]7O)CC[C@]6(C)[C@H]5CC[C@]34C)N2C1,-2.9%
CCCCC/C=C\C/C=C\C/C=C\C/C=C\CCCC(=O)NC(C)C(=O)O (stereo not given),-5.9%
N#CCCC#N,-10.2%
CC(C)Oc1ccc(CCN)cc1Cl,-2.5%
COc1ccc(NC(=O)N2CCCC3(CCN(C(=O)Oc4ccccc4)CC3)C2)cc1,-1.6%
CN1CC[C@@]2(c3cccc(O)c3)Cc3nc4ccccc4cc3C[C@H]2C1,-7.7%
O=C(Nc1ccc(F)cc1)N1CC2CC(C1)c1cccc(=O)n1C2 (stereo not given),-12.4%
CN1[C@H]2CC(=O)C[C@@H]1[C@@H](O)C2,-10.9%
CCn1c(O)c(C=NCc2cccs2)c(=O)[nH]c1=O,-6.9%
CCOc1ccc(C2(C#N)CC[N+](C)(C)CC2)cc1,-0.5%
Cc1ccc(O)c(CN2CCN(c3ccccc3)CC2)c1,?
O=C1CC[C@]2(O)[C@H]3Cc4ccc(O)c5c4[C@@]2(CCN3CC2CC2)[C@@H]1O5,-1.4%
O=C1CC[C@]2(O)C3Cc4ccc(O)c5c4C2(CCN3CC2CC2)C1O5 (stereo not given in full),-3.5%
NC(=O)OCCSc1nnc(-c2cccc(C(N)=S)c2)o1,-5.9%
CN1C(=O)C(=Cc2ccccc2OCc2ccc(Cl)cc2)C(=O)N(C)C1=O,22.4µM*
Cc1cccc(-n2c(C)nc3cc(C(=O)N4CCC5(CC4)OCCO5)ccc32)c1,14.1µM*
COc1ccc(C=C2C(=O)N(C)C(=O)N(C)C2=O)cc1CSc1ccccn1,25.1µM*
CC(CO)NC(=O)C1C=C2c3cccc4[nH]cc(c34)C[C@H]2N(C)C1 (stereo not given in full),?
Cn1cc(C(=O)C(=O)N[C@H]2CN3CCC2CC3)c2ccccc21,-7.7%
C[C@@H]1CC[C@@]2(OC1)O[C@H]1[C@@H](O)[C@H]3[C@@H]4CC[C@H]5C[C@@H](O[C@@H]6O[C@H](CO)[C@H](O[C@@H]7O[C@H](CO)[C@@H](O)[C@H](O[C@@H]8OC[C@@H](O)[C@H](O)[C@H]8O)[C@H]7O[C@@H]7O[C@H](CO)[C@@H](O)[C@H](O[C@@H]8O[C@H](CO)[C@@H](O)[C@H](O)[C@H]8O)[C@H]7O)[C@H](O)[C@H]6O)[C@H](O)C[C@]5(C)[C@H]4CC[C@]3(C)[C@H]1[C@@H]2C,-4.6%
CCSC(=O)N1CCCCCC1,-6.8%
CC1(C)C2CC=C(CN3CCC(O)CC3)C1C2 (stereo not given),-7.8%

# Screening results from PubChem.
